D2 ag: agonists of human D2 dopamine receptor (beta-arrestin); DiscoveRx PathHunter D2 beta-arrestin, luminescence, 90 min; 100% = 57 uM dopamine signal; actives 0.084% (n = 360,000); P14416; AID 624465; activation, % (test concentration not listed); in the data active = activation above about 40%; inconclusive = about 15% to 40%; inactive = below about 15%; also: compound concentration not given in the record; the text of the record calls up to 30% inactive
Target sequence (P14416 whole entry, looked up): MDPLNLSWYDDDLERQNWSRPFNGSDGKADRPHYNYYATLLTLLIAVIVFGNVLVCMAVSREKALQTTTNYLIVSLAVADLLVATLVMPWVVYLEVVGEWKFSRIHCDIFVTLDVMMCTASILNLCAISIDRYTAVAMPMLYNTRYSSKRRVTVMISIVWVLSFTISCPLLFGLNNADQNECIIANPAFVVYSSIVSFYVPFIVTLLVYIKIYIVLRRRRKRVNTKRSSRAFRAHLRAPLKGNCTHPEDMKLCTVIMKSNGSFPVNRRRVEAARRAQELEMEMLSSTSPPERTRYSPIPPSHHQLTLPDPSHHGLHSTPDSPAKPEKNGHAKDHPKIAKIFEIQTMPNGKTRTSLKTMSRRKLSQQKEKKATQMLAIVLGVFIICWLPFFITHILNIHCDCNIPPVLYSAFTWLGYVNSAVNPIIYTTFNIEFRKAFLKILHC
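Agonist mode: compounds alone added to overnight-plated D2 PathHunter cells for 90 min at 37 C, with 57 uM final dopamine (EC100) defining full response. Beta-arrestin recruitment detected by chemiluminescent reagent, read after 1 h at ambient temperature.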
D2 PAM: human D2 receptor positive allosteric modulation. potentiation, % (concentration not given with the values). actives 0.23% (n = 360,000). P14416. DiscoveRx D2 beta-arrestin cells, luminescence, 90 min; 100% = 57 uM dopamine signal; active = potentiation of 50% or more; inconclusive = 30% to 50%; inactive = 30% or less;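 also: compound concentration not given in the record; tested on top of an EC20 dose of dopamine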
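PathHunter beta-arrestin assay in DiscoveRx D2 cells. Compounds were added with an EC20 of dopamine (50 nM final) for 90 min at 37 deg C. Luminescence was read 1 h after detection reagent, with 57 uM dopamine as the EC100 control.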
CtBP-E1A blk: inhibitors of CtBP/E1A interaction; AlphaScreen GST-E1A/His-CtBP binding, 1536-well; stronger effect = lower value; control for the full effect not named in the record; activity change, % (test concentration not listed); actives 0.49% (n = 340,000); AID 651724; in the data active means activity change below about -65%; inconclusive means about -30% to -65%; inactive means above about -30%; also: % is scaled to controls: 0 for no effect and ±100 for the full control effect; compound concentration not given in the record
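AlphaScreen with 125 nM GST-E1A and 125 nM His-CtBP (5X stocks) in Tris pH 8.0, 300 mM NaCl, BSA, Tween 20, TCEP. Compounds preincubated 2 h at 37 deg C, then glutathione donor/nickel acceptor beads added for 1 h at 37 deg C in dark.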
TRPML1 agonist: human mucolipin-1 channel agonism; TRPML1-expressing cells, Ca2+ dye fluorescence, FDSS; host cell line not named in the record; reference of the full effect not given here; activation, % (concentration not given with the values); actives 0.12% (n = 410,000); AID 624414; in the data active = activation above about 50%; inconclusive = about 30% to 50%; inactive = below about 30%; also: 0% is about no effect; the text of the record puts the active cut at 80%
Target sequence (Q9GZU1 whole entry, looked up): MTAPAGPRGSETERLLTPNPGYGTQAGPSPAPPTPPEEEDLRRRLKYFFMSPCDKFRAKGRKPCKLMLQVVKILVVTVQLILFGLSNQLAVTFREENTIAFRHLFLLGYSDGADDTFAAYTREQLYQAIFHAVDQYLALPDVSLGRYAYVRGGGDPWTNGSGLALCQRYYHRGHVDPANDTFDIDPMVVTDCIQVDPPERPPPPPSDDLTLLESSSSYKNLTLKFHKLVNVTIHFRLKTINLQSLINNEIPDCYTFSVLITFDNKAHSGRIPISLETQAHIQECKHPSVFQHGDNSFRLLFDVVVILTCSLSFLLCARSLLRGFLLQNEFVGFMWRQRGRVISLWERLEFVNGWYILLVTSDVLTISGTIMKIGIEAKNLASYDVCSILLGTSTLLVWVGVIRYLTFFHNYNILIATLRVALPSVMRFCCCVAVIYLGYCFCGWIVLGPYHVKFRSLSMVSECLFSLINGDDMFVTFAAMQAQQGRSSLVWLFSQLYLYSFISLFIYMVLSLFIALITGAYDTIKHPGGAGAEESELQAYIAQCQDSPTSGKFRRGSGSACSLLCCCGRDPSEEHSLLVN
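Kinetic FDSS Ca2+ read in Tet-induced TRPML1-DL cells (ABD Ca8 dye plus quencher, 45-90 min RT loading): baseline, then compound, then 110 s agonist window; EC80 agonist 54-4 at 4uM final added afterwards for a 110 s antagonist window.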
PINK1 expr mod: modulators of PINK1 expression | PINK1 immunofluorescence, high-content cytometry, 24 h | Potency, µM (titrated, usually from 76.6 µM), for the others: at the top dose activation (PINK1 increase), usual class: activators | actives 0.2% (n = 410,000); active = well fitted activation curve with a large enough effect; inconclusive = small, poorly fitted or top-dose-only effect; inactive = flat fitted curve, though single readings scatter; cell line not stated here;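 also: potency is read from the fitted curve at half-maximal effect; % of control where 0% means no effect; nearly all actives have a fitted effect of over 65% in size; a mitochondrial uncoupler was the plate control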
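PINK1 protein, normally rapidly degraded, was detected by immunofluorescence after 24 hour compound treatment of a stable cell line. Titration data (5 concentrations) came from laser-scanning cytometry, with CCCP-treated wells as controls.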
Six1-Eya2 inh: inhibitors of human Six1/Eya2 interaction | activity change, % (test concentration not listed) | actives 0.56% (n = 360,000) | Q15475+O00167 | AID 651725 | AlphaScreen GST-Six1/His-Eya2 binding, biochemical; stronger effect = lower value; control for the full effect not named in the record; in the data active = activity change below about -65%; inconclusive = about -30% to -65%; inactive = above about -30%; also: % is scaled to controls: 0 for no effect and ±100 for the full control effect; compound concentration not given in the record
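AlphaScreen with GST-Six1 and His-Eya2 (5X mix: 250 nM and 500 nM), glutathione donor and nickel acceptor beads; buffer 50 mM Tris pH 8.0, 300 mM NaCl, 1 mM TCEP; 1 h at 37 C in the dark.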
* hit, by the source's call; ? = inconclusive; / = not tested or not shown; [ ] = dose if it differs, or a comment.

SMILES | D2 ag | D2 PAM | CtBP-E1A blk | TRPML1 agonist | PINK1 expr mod | Six1-Eya2 inh
COc1ccc(OC)c(CCNC(=O)c2ccc3c(c2)N(Cc2ccc(F)cc2)CCS3)c1 | 2.9 | -3 | -27 | 0.2 | 9.0% | -24
Cc1csc(=N)n1-c1ccc(Cl)cc1 | 1.4 | -7 | -1 | 1.7 | 7.7%[38.3 µM] | -5
CCN(CC)c1ccc(-n2c(O)c(C=C3N=c4ccccc4=N3)sc2=S)cc1 | 1.8 | 7 | -3 | -0.1 | 3.7% | 5
CSCC(=O)N1CCCC(N2CCN(c3cccc(C(F)(F)F)c3)CC2)C1 (stereo not drawn) | -2.1 | -11 | / | / | 0.6% | -1
CC(=O)c1cc(Cl)ccc1OC(=O)c1ccco1 | -2.3 | -5 | 40 | -0.1 | -3.8%[38.3 µM] | -5
Cc1cccc(OCCC(=O)OCC(=O)N2c3ccccc3NC(=O)C2(C)C)c1 | 2.9 | -15 | 4 | 1.1 | 1.2% | -3
Cc1ccc(C(=O)N2CCCC(C(=O)Nc3cccc(-c4ccc(F)cc4)c3)C2)cn1 (stereo not drawn) | 1.3 | -12 | -1 | 0.6 | 1.3% | -4
O=C(NC1CCCCC1)c1cc(N2C(=O)CCC2=O)ccc1Cl | -3.6 | -4 | -4 | 0.3 | 0.4% | -4
Cc1cc(OCC(=O)NNC(=O)c2cccnc2)cc(C)c1Cl | 2.2 | -11 | 0 | 0.1 | 0.6% | 13
O=C(Cn1c(=O)oc2ccccc21)N1CCCCC1 | -1.5 | -14 | 0 | 1.1 | 1.0% | 2
O=S(=O)(NC1CCCC1)c1cccc(-c2nnc(-c3ccccc3)o2)c1 | -0.8 | -9 | -27 | 2.5 | 2.2%[38.3 µM] | -18
COc1ccc(-c2nsc3c(N4CCCCC4)ncnc23)cc1 | 0.6 | 18 | 9 | -1.0 | -1.1% | 11
COC(=O)c1ccc(C2NC(=O)c3c(sc(C)c3C)N2)cc1 (stereo not drawn) | -5.9 | -10 | -15 | 1.0 | 6.3% | -4
CN(C)CCNc1nc(-c2ccccc2)nnc1C(F)(F)F | -1.7 | 5 | -6 | -0.3 | -1.3% | 0
COc1cccc(OCC(O)CN2CCN(CCO)CC2)c1 (stereo not drawn) | -3.8 | -11 | 2 | 0.3 | -1.2% | 13
Cc1ccc(Nc2ccc(C(N)=O)cc2[N+](=O)[O-])cc1 | 0.8 | -26 | 1 | 1.6 | -0.7% | -14
CNC(=O)CSc1nnc(-c2ccco2)n1-c1cc(C)ccc1C | -4.7 | -4 | 0 | 0.1 | -0.5% | 7
O=C(Nc1ccc(F)cc1)C1CCN(S(=O)(=O)c2ccc3[nH]c(=O)oc3c2)CC1 | 1.2 | -2 | 0 | 0.4 | 1.3% | 6
Cc1cc(C)n(-c2ccc([N+](=O)[O-])cc2-c2nn[nH]n2)n1 | 2.5 | 3 | 17 | -0.2 | 1.3% | 2
Cc1cc(C(=O)N/N=C/c2sc(N3CCOCC3)nc2-c2ccccc2)c(C)o1 | 3.3 | -5 | 2 | -0.5 | 0.9% | -7

Single records, as listed above:
Cc1cc(C(=O)N/N=C/c2sc(N3CCOCC3)nc2-c2ccccc2)c(C)o1 is entered as D2 ag = 3.3; D2 PAM = -5; CtBP-E1A blk = 2; TRPML1 agonist = -0.5; PINK1 expr mod = 0.9%; Six1-Eya2 inh = -7
Cc1cc(C)n(-c2ccc([N+](=O)[O-])cc2-c2nn[nH]n2)n1 is entered as D2 ag = 2.5; D2 PAM = 3; CtBP-E1A blk = 17; TRPML1 agonist = -0.2; PINK1 expr mod = 1.3%; Six1-Eya2 inh = 2
O=C(Nc1ccc(F)cc1)C1CCN(S(=O)(=O)c2ccc3[nH]c(=O)oc3c2)CC1 is entered as D2 ag = 1.2; D2 PAM = -2; CtBP-E1A blk = 0; TRPML1 agonist = 0.4; PINK1 expr mod = 1.3%; Six1-Eya2 inh = 6

(list continues)
SMILES | D2 ag | D2 PAM | CtBP-E1A blk | TRPML1 agonist | PINK1 expr mod | Six1-Eya2 inh
CCC(=O)N(Cc1cc(=O)[nH]c2ccccc12)c1ccc(C)cc1C | -0.2 | 0 | 2 | -0.6 | 2.6% | -1
O=C(OCc1ccco1)c1ccc(S(=O)(=O)N2CCCCC2)cc1 | -2.0 | -14 | 8 | 0.2 | 1.0% | -6
COc1ccc(S(=O)(=O)NCc2cccnc2)cc1C(=O)NC1CCCCC1 | -0.9 | -21 | 11 | 1.6 | -0.7% | 0
COc1ccc(C)cc1NCc1ccc(OC)c(C)c1OC | -3.6 | -5 | ? | -0.2 | -0.1% | ?
COc1ccc(C2C(C(C)=O)=C(Nc3ccccc3)CC(C)(O)C2C(C)=O)cc1OC (stereo not drawn) | 6.3 | 17 | -7 | 0.4 | 7.8%[38.3 µM] | -8
Cc1ccc(S(=O)(=O)N2CCN(C(=O)COC(=O)c3ccc(Cl)nc3)CC2)c(C)c1 | -0.5 | 0 | / | -1.6 | 1.1% | -3
Cc1nc2c(C(=O)NCc3ccc(F)cc3)c[nH]n2c(=O)c1Cl | -0.1 | -3 | -23 | 1.6 | 5.1%[38.3 µM] | -17
CCc1[nH]c(=O)c(C#N)c2c1CSC(C)(C)C2 | -3.9 | 9 | 2 | 0.4 | -4.3%[38.3 µM] | 3
Cc1nn(C2CCS(=O)(=O)C2)c(Cl)c1/C=C/C(=O)OCC(N)=O (stereo not drawn) | 0.5 | 2 | 2 | 0.5 | -0.4% | -1
CCCCNC(=S)N(Cc1c(C)noc1C)c1ccccc1 | -0.7 | -13 | 18 | 1.4 | -1.2% | 16
O=C(CNC(=O)c1cccs1)NC1=NCCS1 | -0.1 | -6 | -6 | -0.3 | ? | 0
O=c1[nH]n(-c2cccc3cccnc23)c(=O)c2ccccc12 | 6.4 | 11 | 0 | 5.8 | -2.9% | -2
CC(=O)NC1=NN(C(C)=O)C(c2ccco2)S1 (stereo not drawn) | -2.8 | -5 | 6 | -0.1 | -0.3% | 0
CCOc1ccc(-c2nnn(CC(=O)Nc3cc(OC)ccc3OC)n2)cc1OCC | -0.6 | -3 | -3 | 2.3 | 29%[38.3 µM] | -2
CN(C(=O)COC(=O)c1nc(Cl)ccc1Cl)C1CCS(=O)(=O)C1 (stereo not drawn) | 2.8 | 16 | 5 | 1.1 | 1.0% | 2
CC(=O)c1ccc(-c2ccc([C@H]3[C@H]4C=CC[C@@H](C)[C@@H]4C(=O)N3Cc3ccccc3)c(F)c2)cc1 | -1.0 | -1 | -8 | 3.0 | ? | -14
CCOC(=O)c1c(C)[nH]c(C)c1C(=O)CN1C(=O)NC2(CCC(C)CC2)C1=O (stereo not drawn) | -1.4 | 2 | -3 | -0.9 | 0.4% | 7
NS(=O)(=O)c1cccc(NC(=O)CSc2nc3ccc(Cl)cc3[nH]2)c1 | 3.1 | 3 | -5 | -0.3 | -0.5% | -7
Cc1ccc(C)c(N2N=C(C(=O)Nc3ccccc3N3CCCC3)CCC2=O)c1 | -4.8 | -22 | 0 | 1.6 | -0.5% | -15
CCN(CC)S(=O)(=O)N1CCC(C(=O)NCc2ccco2)CC1 | -3.0 | 0 | 16 | 0.5 | -1.7% | -5
Cc1cccc(-c2cccc(NC(=O)C3CCCN(C(=O)c4ocnc4C)C3)c2)c1 (stereo not drawn) | -6.0 | -20 | -3 | 1.3 | 1.4% | -7
CCc1ccc2[nH]c(=O)c(CN(Cc3ccccc3)Cc3nnnn3Cc3ccco3)cc2c1 | -3.0 | -23 | -9 | 1.1 | -0.3% | -14
COC(=O)c1ccc(NC(=O)COc2ccc(S(=O)(=O)N3CCCCC3)cc2)cc1 | -5.7 | -12 | 4 | 2.8 | 12%[38.3 µM] | 1
CCC(C(=O)n1cccc1C#N)c1ccccc1C (stereo not drawn) | -11 | -5 | 3 | 0.3 | -0.9% | 7
CCN1CCc2c(sc(NC(=O)c3ccc(S(=O)(=O)N4CCCCCC4)cc3)c2C(=O)NC)C1 | -3.5 | -16 | 1 | 9.8 | 1.5% | 8
CC(=O)Nc1ccc(N/C(=N\S(=O)(=O)c2ccccc2)c2ccccc2)cc1 | -6.1 | 14 | -12 | 0.2 | -1.0% | -18
Cc1cc(C)nc(N(C#N)Cc2cccc3ccccc23)n1 | 1.5 | 11 | 8 | 2.3 | 1.5% | 5
Cn1nc(N2CCN(S(=O)(=O)c3ccccc3)CC2)c(=O)n(C)c1=O | -4.2 | -2 | 4 | 0.1 | 1.1% | 6
Cc1c(CCC(=O)NCC(=O)O)c(=O)oc2cc3occ(-c4ccccc4)c3cc12 | -0.8 | -9 | -25 | / | -0.8% | ?
COC(=O)[C@H]1C[C@@H]1[C@H](NS(=O)(=O)c1ccccc1)c1ccccc1 | -6.1 | -1 | 5 | 0.0 | 0.0% | 4
O=C(O)C1C2C=CC(C2)C1C(=O)Nc1ccc(Cl)c(Cl)c1 (stereo not drawn) | -1.6 | -2 | 4 | 0.1 | -0.8% | 5
COC(=O)N/N=C\c1ccc(-c2cc(Cl)c(Cl)cc2Cl)o1 | 4.1 | 3 | 4 | -0.2 | ? | 6
O=C(NCCc1c[nH]c2ccccc12)/C(=C/c1cccnc1)NC(=O)c1ccccc1 | 3.3 | -8 | / | 0.7 | 0.5% | -4
COc1cc2c(cc1OC)CN(CC(=O)Nc1ccc(C)cc1)CC2 | -3.0 | -14 | 2 | 0.2 | 11%[38.3 µM] | -5
COc1ccc2oc(=O)c(-c3ccccc3C(=O)N3CCOCC3)cc2c1 | -1.5 | -11 | 1 | 0.3 | -0.3% | 3
CCC(=O)N1N=C(c2cccs2)CC1c1ccc(C)cc1 (stereo not drawn) | -4.6 | -10 | / | 1.1 | -0.4% | 5
CCOC(=O)CNC(=O)N1CCCC(C(=O)c2cc(C)c(OC)c(C)c2)C1 (stereo not drawn) | 3.8 | -4 | 0 | 0.2 | 2.6% | 1
C=C(C)C(=O)N1CC2(CC(c3cccc(NC(=O)CC)c3)=NO2)C[C@H]1C(N)=O (stereo partly drawn) | -0.9 | -6 | / | 0.3 | 0.5% | -11
CCOC(=O)C1CCN(C(=O)CN(c2cc(Cl)ccc2OC)S(=O)(=O)c2ccccc2)CC1 | 3.7 | -10 | 0 | 2.4 | 0.4% | 21
COc1ccc(S(=O)(=O)N(CC(=O)N2CCCC2)Cc2ccccc2)cc1 | -2.8 | -32 | -1 | 0.0 | 0.4% | 2
O=C(CNCc1ccco1)Nc1cc(S(=O)(=O)N2CCOCC2)ccc1N1CCOCC1 | 2.0 | 2 | 0 | -0.4 | -0.3% | 8
Cc1nc(NCc2ccco2)c2cn[nH]c2n1 | 5.2 | -3 | -1 | -0.6 | 4.1% | 12
CC1CCCCN1c1nnc(NC(=O)c2cc(-c3ccc(Br)cc3)on2)s1 (stereo not drawn) | -1.0 | 2 | -8 | -0.5 | -0.4% | 7
COc1cc(OC)cc(C(=O)NC(=S)N(Cc2ccccc2)C(C)C)c1 | -5.1 | -14 | 2 | -0.6 | 5.9% | -14
